Screens (PubChem)
Bead autofluor – compound fluorescence in toxin protease inhibitor counterscreen | compound autofluorescence counterscreen, microsphere flow cytometry; stronger effect = higher value | fluorescence intensity (test concentration not listed) | hit rate 3.1% among 360,000 | AID 624483;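 active = at least 3 SD above the mean of all compounds, about 16000 in these data; inconclusive = too few beads counted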;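 note: 100 nL of 1 mM stock went into each well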
Sa ugtP lethal – growth inhibition of S. aureus ugtP deletion strain | S. aureus RN4220 ugtP deletion, OD600 growth, 16 h; some inactives read as strong as hits | growth inhibition, % (no concentration beside the values) | hit rate 0.54% among 330,000;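 active = z-score under -3 and OD600 up to 0.15 on both plates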;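 note: plate controls were untreated wells for no effect and antibiotic for full effect; wells of about 80 µL received 100 nL stock; the first replicate is given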
BJeLR lethal – kills HRASV12-expressing BJeLR cells; inhibition, % (concentration not given with the values); BJeLR (HRASV12) viability, CellTiter-Glo ATP luminescence, 48 h; reference of the scale not given here; hit rate 0.17% among 300,000;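 active = replicate mean above 50%; inconclusive = above 50% but judged a plate artefact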;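 note: 50 nL library stock added to about 25 µL; numbers are from one replicate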
RN4220 kill – S. aureus RN4220 growth inhibition; hit rate 0.33% among 330,000; OD600, 16 h; AID 1259311; inhibition, % (concentration not given with the values);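 active = z-score of -3 or lower and OD600 up to 0.18 on both plates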;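 note: plate controls were untreated cells for no effect and reference antibiotic for full effect; stock transfer was 100 nL into about 80 µL; one replicate is shown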
Mtb hypoxia inh – Mtb hypoxia fluorescent reporter inhibition. fluorescence inhibition, % (test concentration not listed). M. tuberculosis hypoxia-regulated fluorescent reporter, fluorescence. hit rate 0.1% among 300,000;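 active = 35 to 45% if threefold the growth effect, above 45% if 1.5-fold the growth effect; inactive = the rest, general growth blockers included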;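 note: wells of about 50 µL received 100 nL stock; 0% = vehicle wells and 100% = reference inhibitor wells; whole bacteria with a GFP reporter of the hypoxia response; strong numbers were not always called active; many hits fall short of the cut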
PrP UTR inh – inhibition of PrP 5' UTR reporter expression. cell-based PrP 5' UTR mRNA reporter, plate reader. inhibition, % (no concentration beside the values). hit rate 0.35% among 340,000. AID 488862;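 active = every replicate at 50% or more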;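 note: 0 = median of the neutral control wells; tested in H4 reporter cells; numbers are from one replicate; inactives centre near -14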
Mtb hypoxia inh growth – further read-out of Mtb hypoxia inh, marked with its call; growth inhibition, %; measured here: M. tuberculosis growth (absorbance);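 0% = vehicle and 100% = reference antibiotic; read after six days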
Starred values were filed as active, the others as inactive; ? = inconclusive; . = not tested or not shown.

Each structure is followed by: Bead autofluor	Sa ugtP lethal	BJeLR lethal	RN4220 kill	Mtb hypoxia inh	Mtb hypoxia inh growth	PrP UTR inh
- Oc1ccccc1CN1CCC(C(O)(c2ccccc2)c2ccccc2)CC1
→ 2441	-3	4	1.6	5	2	-24
- O=C(N/N=C/c1ccc2c(c1)OCO2)c1ccc(Br)o1
→ 2458	.	-6	.	.	.	-103
- CC1CN(C(C)CO)C(=O)c2cc(NS(C)(=O)=O)ccc2OC1CN(C)Cc1ccc(C(=O)O)cc1 (stereo unspecified)
→ .	-9	.	3.9	10	10	.
- O=C(NCC1CCCO1)c1cn(-c2ccccc2)nc1-c1ccccc1 (stereo unspecified)
→ 6004	-6	10	4.5	-4	11	-15
- O=C1c2ccccc2NC2(CCCC2)N1O
→ 2788	-2	2	1.1	.	.	-35
- CC(C)=N/N=C1/NC(=O)C(Cc2ccccc2)S1 (stereo unspecified)
→ 3570	9	-22	7.5	-4	-2	-17
- COc1ccccc1/C=C/C(=O)NC(=S)Nc1ccccn1
→ 4082	1	1	0.6	-15	1	-25
- CC1(c2ccc(OC(F)F)cc2)NC(=O)N(CC(=O)Nc2ccc3[nH]c(=O)[nH]c3c2)C1=O (stereo unspecified)
→ ?	6	12	1.9	3	-3	-27
- CCOC(=O)N/N=C(\C)c1ccc(Br)cc1
→ 10114	.	0	.	.	.	-57
- CCCN(CCC)S(=O)(=O)c1cc2c3c(c1)CCN3C(=O)CC2
→ 4221	2	5	4.0	-1	-8	-12
- O=C(CN(Cc1ccccc1)C(=O)c1csnn1)NCc1ccc2c(c1)OCO2
→ 2749	1	1	-2.9	2	0	16
- Brc1ccccc1CNCCc1ccc2c(c1)OCO2
→ 3573	7	6	3.3	10	11	-11
- CCOC(=O)N1CCN(c2ncnc3c2[nH]c2ccc(OC)cc23)CC1
→ 3479	-5	-3	2.2	6	16	-6
- Cc1[nH]c(=S)c(C#N)c(-c2ccco2)c1C(=O)N(C)C
→ 4487	11	-3	1.7	5	4	-21
- CCOC(=O)/C(C#N)=C\c1c(C)cc(C)c(COC(C)=O)c1C
→ 9388	1	-3	-1.7	-10	-11	-8

Overlap with the part before: 4 compounds; new compounds follow.
Each structure is followed by: Bead autofluor	Sa ugtP lethal	BJeLR lethal	RN4220 kill	Mtb hypoxia inh	Mtb hypoxia inh growth	PrP UTR inh
- Brc1ccccc1CNCCc1ccc2c(c1)OCO2
→ 3573	7	6	3.3	10	11	-11
- CCOC(=O)N1CCN(c2ncnc3c2[nH]c2ccc(OC)cc23)CC1
→ 3479	-5	-3	2.2	6	16	-6
- Cc1[nH]c(=S)c(C#N)c(-c2ccco2)c1C(=O)N(C)C
→ 4487	11	-3	1.7	5	4	-21
- CCOC(=O)/C(C#N)=C\c1c(C)cc(C)c(COC(C)=O)c1C
→ 9388	1	-3	-1.7	-10	-11	-8
- Cc1ccc(OCC(=O)Nc2cccc(-c3nnc(-c4ccccc4)o3)c2)cc1
→ 11020	-5	19	7.8	8	4	-52
- Cc1noc(C)c1COC(=O)C1COc2ccccc2O1 (stereo unspecified)
→ 3996	-1	-12	7.1	4	6	-20
- Cn1c(CCN2CCOCC2)nc2cc(NC(=O)c3cccs3)ccc21
→ 3114	0	-3	0.3	11	2	-14
- CCC(=NCC1CCCO1)c1c(O)n(-c2ccccc2C)c(=O)[nH]c1=O (stereo unspecified)
→ .	-9	4	-4.9	-9	11	9
- CC(C(=O)NCC1CCCCC1)N1CCc2ccccc2C1 (stereo unspecified)
→ 3846	7	-1	8.1	17	6	-16
- O=c1oc(/C=C/c2ccccc2)nc2sc3c(c12)CCC3
→ 4755	-7	14	0.8	.	.	-64
- Cc1nc([N+](=O)[O-])c(Br)n1Cc1ccccc1
→ 3988	10	0	5.2	12	4	-16
- O=C(Nc1nc(-c2ccccn2)cs1)c1cc2ccccc2o1
→ 3935	4	2	28	0	2	-33
- Cc1ccc(NC(=O)c2nc[nH]c2C(=O)NCCCCNC(=O)c2[nH]cnc2C(=O)Nc2ccc(C)cc2)cc1
→ 3562	0	.	-2.3	5	0	-4
- Cc1nc2c(-c3ccc(F)cc3)c(C)nn2c(C)c1CCC(=O)Nc1ccccc1
→ 3314	2	-1	2.1	-8	8	0
- Clc1ccc(N/N=C/c2cccs2)nn1
→ 3678	.	-8	.	.	.	-33
- Cc1ccc(S(=O)(=O)NCC(=O)OCC(=O)NC(=O)c2cccn2C)cc1
→ 4527	6	6	4.0	14	-2	-18
- Cc1ccc(CNC(=O)C2CC(=O)N(c3ccc(OCC(=O)N4CCCC4)cc3)C2)cc1 (stereo unspecified)
→ 3190	-4	-11	-12	4	3	-8
- Cc1cc(Cl)ccc1OCC(=O)OCC(=O)N(CC(C)C)c1c(N)n(Cc2ccccc2)c(=O)[nH]c1=O
→ ?	11	0	4.0	-9	-3	-17
- O=C(NC1=NCCS1)c1ccccc1Br
→ 4616	8	-11	6.5	8	0	.
- CCCCCCN(C(=O)CCCCCN1C(=O)NC(c2ccc(-c3ccccc3)cc2)C(C(=O)OCc2ccccc2)=C1C)C(C(=O)NCCCC)c1ccc(OCC(=O)OC)c(C(=O)OC)c1 (stereo unspecified)
→ .	-9	3	0.1	9	4	.
- S=C(NCCc1ccccc1)NC1CCC(NC(=S)NCCc2ccccc2)CC1 (stereo unspecified)
→ 4195	-1	-2	3.5	0	-1	-34
- COc1ccccc1NC(=O)Cc1nnc(SCC(=O)NC2CCCCC2)n1C
→ 5829	9	12	8.4	-2	-2	-15
- N/C(Cc1ccc(Cl)cc1Cl)=N\OC(=O)c1cccs1
→ 3654	-11	2	-2.8	4	7	-18
- COc1ccc(Br)cc1CNCCc1ccc2c(c1)OCO2
→ 4586	-1	-5	2.8	-1	0	-13
- CC(C)c1nnc(NC(=O)c2cccs2)s1
→ 6185	-8	0	-6.3	2	12	-49
- Cn1cnnc1SCC(=O)Nc1ccc(S(=O)(=O)N2CCCC2)cc1
→ 10961	-1	-8	8.2	15	0	.
- CC1(c2nnc(-c3ccc(Cl)cc3)o2)CC(c2cccnc2)=NO1 (stereo unspecified)
→ 3135	2	-8	5.2	10	-8	3
- O=Cc1sc(=NS(=O)(=O)c2ccccc2)n(CCCCl)c1Cl
→ .	11	.	7.5	0	4	.
- COc1cccc(CC(=O)OCC(=O)NC(=O)c2ccc(OC(F)F)cc2)c1
→ 7125	3	12	0.2	3	0	-23
- Cc1ccc(NC(=O)N(C)c2ccccc2)cc1
→ 3194	3	1	0.6	4	6	-6
- CC(=O)c1ccc(OCCNS(=O)(=O)c2ccc(-n3cnnn3)c(C)c2)cc1
→ 4690	12	16	8.7	-6	-7	3
- CCOC(=O)c1c(NC(N)=O)nc2n1CCC2
→ 2065	9	-8	-3.4	-4	5	-10
- Cc1cc(C)c(OCC(=O)Nc2ccccn2)c([N+](=O)[O-])c1
→ 2573	3	1	3.6	7	4	-21
- COc1ccc(S(=O)(=O)N(CC(=O)NN=C2CCN(C)CC2)c2ccc(C)cc2)cc1OC
→ ?	3	-8	1.4	5	-3	-10
- Cc1cccc(NC(=O)c2ccc(NCC3CCCO3)c([N+](=O)[O-])c2)n1 (stereo unspecified)
→ 4203	.	10	.	.	.	-42
- Nc1ccc2nc(-c3ccc(N)c(Cl)c3)[nH]c2c1
→ 2617	1	2	-7.0	18	11	-79
- CC(NC(=O)CSc1nnc(-c2cccnc2)n1N)c1ccccc1 (stereo unspecified)
→ 4092	3	-14	7.1	10	6	-20
- CC(/C=N/NC(=O)c1nnn(-c2nonc2N)c1C(C)C)=C\c1ccco1
→ 3993	.	9	.	.	.	-1
- CC1=CC(=Nc2c(C)n(C)n(-c3ccccc3)c2=O)C=C(C)C1=O
→ 2418	12	-2	2.1	12	7	-2
- CC(/C=N/N1CCN(c2ccccc2)CC1)=C\c1ccccc1
→ 11050	.	2	.	.	.	-14
- FC(F)(F)c1cc(CCN2CCNC[C@H]2Cc2cccc3ccccc23)cc(C(F)(F)F)c1
→ 5099	.	-2	.	.	.	-1
- Cc1ccc(CNC(=O)c2ccc(CN3CCOCC3)cc2)cc1
→ 9224	2	-7	4.6	11	9	-33
- Cc1nn(CCCC(=O)Nc2cc(Oc3ccccc3)cc([N+](=O)[O-])c2)c(C)c1[N+](=O)[O-]
→ 7459	-21	6	-4.9	-2	5	-1
- CCC1CCC(NC2CCCCNC2=O)CC1 (stereo unspecified)
→ 9590	2	-14	3.0	14	7	-14
- COc1cc(/C=N/Nc2ccc3ccccc3c2)ccc1OC(=O)c1ccco1
→ 2543	.	16	.	.	.	-63
- CC[C@H]1c2[nH]c3ccccc3c2C[C@@H]2C(=O)N(c3ccc(F)cc3)C(=O)N21
→ 5110	-5	12	0.4	.	.	-4
- Cc1ccc(N2NC(C)(c3cccs3)NC2=S)cc1 (stereo unspecified)
→ 2691	9	-5	6.7	5	0	-148
- CCN(CC(=O)Nc1ccccc1C(F)(F)F)C(=O)CN1C(=O)NC2(CCCC2)C1=O
→ ?	4	-7	2.3	1	-5	-14
- CCCCCc1c(O)c2ccccc2[nH]c1=O
→ 6576	3	4	0.1	6	-4	-14
- CCCn1c(SCC(=O)NCCc2ccc(Cl)cc2Cl)n[nH]c1=O
→ 9551	5	-5	2.6	2	2	-34
- Cc1ccc(O)c(C(=O)/C=C/c2ccc3c(c2)OCCCO3)c1
→ 2517	7	9	8.7	13	5	-81
- COc1cccc(-c2cc(C(F)(F)F)n3nc(C(=O)N4CCC5(CC4)OCCO5)cc3n2)c1
→ 13606	25	-10	9.4	7	5	-33
- CCCc1cc(=O)c2ccc(OCC(C)=NO)cc2o1
→ .	6	.	3.3	10	17	.
- CN(C)S(=O)(=O)c1ccc(Cl)c(NC(=O)CN2C(=O)NC3(CCCC3)C2=O)c1
→ 5970	4	4	3.6	3	17	-8
- COc1ccc(CCN2CC34C=CC(O3)C(C(=O)NCc3ccccc3)C4C2=O)cc1OC (stereo unspecified)
→ 9515	3	-12	0.8	9	1	-7
- Cc1ncc([N+](=O)[O-])n1CCOC(N)=O
→ 4912	5	13	1.8	9	-1	-20
- Cc1ccc2nc(NC(=O)CSc3nc(=O)n(CCN(C)C)c4c3CCCC4)sc2c1
→ 7224	-9	4	-4.7	.	.	-19
- CC(C)Oc1ccc(C(=O)NNC(=O)c2ccccc2C(=O)O)cc1
→ 2511	4	-1	4.0	14	-3	-24
- Cc1ccc([N+](=O)[O-])cc1S(=O)(=O)Nc1cccc(S(=O)(=O)Nc2ccccc2C(=O)O)c1
→ 8579	11	.	3.0	1	-2	-1
- CCOc1cccc2sc(=NC(=O)CCS(=O)(=O)c3ccc(F)cc3)n(C)c12
→ 4950	-2	10	3.2	0	0	-21
- Cc1ccc(CNC(=O)c2ccc(CS(=O)Cc3cccc(Cl)c3)o2)cc1 (stereo unspecified)
→ 5674	5	-9	1.1	5	2	7
- Cc1ccc(NC(=O)CC(NC(=O)c2ccccc2Cl)c2ccccc2)nc1 (stereo unspecified)
→ 3964	5	.	5.0	1	0	-26
- Cc1ccc(OCn2c(=O)sc3ccccc32)cc1
→ 10845	10	-11	4.2	2	8	-25
- COc1ccc(NC(=O)NC2CCCCCCC2)cc1OC
→ 3720	13	-3	6.4	12	11	-12

(next part)
Each structure is followed by: Bead autofluor	Sa ugtP lethal	BJeLR lethal	RN4220 kill	Mtb hypoxia inh	Mtb hypoxia inh growth	PrP UTR inh
- COc1ccc(OCc2cc(C(=O)N3CCN(CC4CC4)CC3)no2)c(Cl)c1
→ .	-3	8	-1.7	0	-5	-38
- CCSC1=N/C(=C\c2ccc(-c3ccccc3[N+](=O)[O-])o2)C(=O)S1
→ 2642	-12	-1	-2.7	.	.	-19
- Cc1c(NC(=O)OC(C)C)sc(=S)n1C
→ 11033	-1	-1	2.7	-4	1	-2
- O=c1[nH]n(-c2ccccc2Cl)c(=O)c2ccccc12
→ 3451	6	-4	2.2	-1	-2	-8
- COCCC(=O)N1CCC(Oc2ccc(C(=O)NCCC3=CCCCC3)cc2)CC1
→ 5095	8	-8	3.2	12	8	-58
- O=C(NNC(=O)c1c(O)c2ccccc2[nH]c1=O)c1ccccc1
→ 3291	.	-7	.	.	.	-14
- CC(C)N(C(=O)Cn1c(-c2ccccc2Cl)nc2ccccc21)c1ccccc1
→ 2074	8	2	4.8	-3	-5	-6
- COc1ccc(C(=O)N2CCN(c3ccccc3)CC2)cc1S(=O)(=O)N1CCOCC1
→ 4728	8	-1	-1.6	11	11	-17
- CC1CN(C(=O)c2cc3c(=O)n4ccccc4nc3n2C)CC(C)O1 (stereo unspecified)
→ 4749	14	5	6.7	-10	-11	-1
